Bioassay records as filed in PubChem.
LT uptake inh: anthrax lethal toxin internalization inhibition; Cells, anthrax lethal toxin internalization, FRET ratio (460/530); Potency, µM (top dose mostly 40 µM), inactives show at the highest dose activity change, negative = inhibition, hits mostly inhibitors; 70,000 tested, 0.67% active; active = well fitted falling ratio curve with the 530 nm signal flat; inconclusive = other ratio curves, or a change in one channel alone; inactive = flat curves in the ratio and both channels; the % refers to the ratio; also: % is scaled to controls: 0 for no effect and ±100 for the full control effect; nearly all actives have a fitted effect of over 50% in size; tested in ME-180 cells; beta-lactamase reporter
SmPrx2 inh: Schistosoma mansoni Prx2 inhibition. 65,000 tested, 0.07% active. S. mansoni Prx2 activity coupled to TGR/GSH (TGR is thioredoxin glutathione reductase), NADPH fluorescence loss, qHTS; some inactives read as strong as hits. Potency, µM; active means full or partial inhibition curve with a strong effect at the top dose; inconclusive means weaker partial or single-point curve; inactive means no accepted curve; also: series up to 57 µM; many of its hits are not listed in these tables
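Prx2 activity was followed as the loss of NADPH fluorescence (ex 365/em 450 nm), read every 30 sec for 8 min after H2O2 start. The enzyme mix (50 nM Prx2, 25 nM TGR, GSH, NADPH; pH 7.4 phosphate buffer) was incubated with compound for 15 min at room temperature first.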
Numbers without * were called inactive; ? = inconclusive; . = no result given; & = joins results of further samples; [ ] = another dose, or the depositor's remark. Potency is read from the fitted curve at half-maximal effect.

SMILES	LT uptake inh	SmPrx2 inh
Cc1ccccc1CS(=O)(=O)c1nnc([C@H](CC(C)C)NC(=O)OC(C)(C)C)o1	?	>57
COc1ccccc1N(C(=O)c1ccco1)C(C(=O)NC1CCCC1)c1cccnc1 (centres undefined)	5%	>57
CCOC(=O)N1CCN(CC(=O)Nc2ccc(C)cc2)CC1	11%	.
CCCCn1c(=O)c2c(c3ccccc31)OCC(=O)N2	-14%	>57
Cc1cc(C)c2c(n1)sc1c(N3CCOCC3)ncnc12	-25%	>57
Cc1ccc(N)cc1O	?	.
CCOC(=O)NC(=O)CSc1nc(C)cc(C)c1C#N	2%	>57
CCC(=O)c1ccccc1OCCN1C(=O)NC(C)(C)C1=O	19%	>57
CC(NC(=O)CC12CC3CC(CC(C3)C1)C2)C(=O)O (centres undefined)	12%	>57
CCOc1cccc(C(=O)Nc2ccccc2OC(F)F)c1	-7%	>57
CCOC(=O)c1cccc(NC(=O)C2CCN(S(=O)(=O)c3cccs3)CC2)c1	-19%	>57
CCN(c1c(C)n(C)n(-c2ccccc2)c1=O)S(C)(=O)=O	1%	>57
CCOc1cccc(C(=O)Nc2ccc(N(CC)CC)cc2)c1	?	>57
COc1ccc(O)c(-c2cc(-c3cccc(Br)c3)n[nH]2)c1	?	.
CCC/C=C(\CCC)C(NC(=O)C(C)(C)C)c1ccc(C(=O)OC)cc1 (centres undefined)	-1%	>57
CCOC(=O)N1CCN(Cc2cccs2)CC1	-23%	>57
CC(C(=O)Nc1nccs1)N1C(=O)C2CC=CCC2C1=O (centres undefined)	-11%	>57
CC(C)(C)NC(=O)COc1ccc(CNn2nnnc2N)cc1	-9%	>57
CSc1nc2c(c(=O)n1C)SC(C)C2 (centres undefined)	7%	>57
Cc1cc(C)n(-c2nc3ccccc3c(=O)n2OCC(=O)OCc2ccccc2)n1	.	>57
Cc1nn(C)cc1C(N)=O	0%	>57
COc1ccc(S(=O)(=O)N(C)CC(=O)NCCC2=CCCCC2)cc1	-3%	>57
c1ccc(-c2csc3ncnc(NCCN4CCOCC4)c23)cc1	?	>57
C=CCN1C[C@H](C)N([C@@H](c2ccccc2)c2ccc(C(=O)N(CC)CC)cc2)C[C@H]1C	4%	?
O=C(NCCC1=CCCCC1)C1COc2ccccc2O1 (centres undefined)	-5%	>57
Cc1ccc(C)c2[nH]c(=O)c(CN(Cc3ccco3)C(=O)Nc3ccccc3)cc12	?	>57
CCCCOC(C)=O	-6%	.
CCOC(=O)N1CCN(C(=O)CN(c2cc(C(F)(F)F)ccc2Cl)S(C)(=O)=O)CC1	-12%	.
CC1CCN(CCCNC(=O)c2cn(C)c3ccc(S(=O)(=O)N4CCCC4)cc3c2=O)CC1	-1%	>57
O=C(Cn1nc(-c2ccccc2)c2ccccc2c1=O)Nc1ccc2c(c1)nc1n2CCOC1	-8%	>57
O=C(Nc1ccc2c(c1)OCO2)c1cccc2c1C(=O)N(C1CCCCC1)C2	-3%	>57
CCOC(=O)CNC(=O)CSc1nc2cccnc2n1C1CCCCC1	?	>57
NC(=O)Cn1cnc(-c2ccccc2)c1	?	>57
COc1cc(C(=O)N2CCC(NC(=O)C(Cc3ccccc3C)NC(C)=O)CC2)cc(OC)c1OC (centres undefined)	-2%	>57
COc1ccc(CNC(=O)CSc2nnc(C)s2)cc1	8%	.
Clc1ccc(Cn2ncc3c(N4CCOCC4)ncnc32)cc1	-15%	>57
CCN(CC)S(=O)(=O)c1ccc(C(=O)NCc2n[nH]c(=S)n2-c2ccccc2OC)cc1	-3%	>57
Fc1ccccc1CSc1nc2ncccc2[nH]1	?	.
COc1ccc(C)cc1-n1nnnc1SC/C(O)=C(\C#N)c1nc2ccccc2[nH]1	-17%	>57
COc1ccc(-n2c(=O)c(-c3cc(F)cc(F)c3)nc3cncnc32)cc1	-7%	>57

Two records drawn at random from the list so far, as already listed:
SMILES	LT uptake inh	SmPrx2 inh
CC1CCN(CCCNC(=O)c2cn(C)c3ccc(S(=O)(=O)N4CCCC4)cc3c2=O)CC1	-1%	>57
Fc1ccccc1CSc1nc2ncccc2[nH]1	?	.

Carrying on:
SMILES	LT uptake inh	SmPrx2 inh
CC(=O)c1cc(C)ccc1OC(=O)c1ccco1	-6%	>57
Cc1cccc(N2CCN(C(=O)CCCOc3ccccc3)CC2)c1C	.	>57
CC(Sc1nnnn1-c1ccccc1)C(=O)Nc1ccc(Cl)cn1 (centres undefined)	-6%	>57
COc1ccc(OC)c(CN2CCN(c3ccccc3OC)CC2)c1	-15%	.
CC(C)Nc1ncnc2c1cnn2-c1ccc(Cl)cc1	?	>57
CCc1ccccc1NC(=O)CN(c1cccc(OC)c1)S(C)(=O)=O	4%	.
O=c1[nH]n(-c2ccccc2)c(=O)c2ccccc12	-11%	>57
COc1ccc(C2C(C(=O)Nc3ccccc3OC)=C(C)Nc3ncnn32)cc1 (centres undefined)	1%	>57
CCOC(=O)N1CCN(C(=O)c2ccccc2CCc2ccccc2)CC1	-8%	>57
C/C(=C\C(=O)Nc1cc(C)on1)c1ccccc1	1%	>57
Cc1cccc2cc(CN(Cc3ccc(F)cc3)C(=O)N(C)C)c3nnnn3c12	-6%	>57
Cc1cccc(C)c1NC1=NCCCS1	-11%	>57&>57&>57
Cn1cc(C(=O)c2ccccc2)cc1-c1nc2ccccc2n1C	-17%	>57
O=C(O)c1ccc2c(c1)C(=O)N(C(Cc1ccccc1)C(=O)O)C2=O (centres undefined)	?	>57
N#CCCN(CCC#N)c1nncs1	8%	>57
COc1ccc(NC(=O)CN2C(=O)C(C)Oc3ccccc32)cc1 (centres undefined)	?	>57
CC(=O)Oc1ccc2c(C)c(CC(C)O)c(=O)oc2c1 (centres undefined)	?	.
O=C(CN1C(=O)C2CC=CCC2C1=O)Nc1ccc(S(=O)(=O)NC2=NCCCCC2)cc1 (centres undefined)	10%	>57
CN(c1ccc(C(=O)O)cc1)S(=O)(=O)c1ccccc1	-7%	>57
Cc1cccc(NC(=O)CSCc2c(C)noc2C)c1C	3%	>57
O=C(Nc1ccc(F)cc1)N(Cc1ccco1)Cc1cc2cc3c(cc2[nH]c1=O)OCO3	?	>57
CCCCCCCC#Cc1ccccc1C(NC(=O)OC)C(C(=O)OC)C(=O)OC (centres undefined)	-16%[8 µM]	.
CCOC(=O)C1CCN(S(=O)(=O)c2cccc(-c3cn4ccccc4n3)c2)CC1	?	>57
CCc1ccc(C2CC(c3cccc(OC)c3)n3nc(N)nc3N2)cc1 (centres undefined)	-14%	>57
C=CCNC(=O)C12CC3CC(C1)CC(C(=O)NCC=C)(C3)C2	-2%	>57
CC(=O)CCC(C)=O	11%	.
COc1ccc(N(CC(=O)N2CCC(C)CC2)S(=O)(=O)c2c(C)nn(C)c2C)cc1	-7%	>57
O=C(Nc1ccc(S(=O)(=O)N2CCCC2)cc1Cl)C1=COCCO1	4%	>57
Cc1cccc(C)c1OCc1nnc(SCC(=O)Nc2nccs2)n1-c1ccccc1	-2%	>57
CC(=O)N1CCN(C(C)=O)C1c1ccccc1	-4%	>57
O=C(NCC1CCCO1)C1CCCN(Cc2cnn(-c3ccccc3)c2-n2cccc2)C1 (centres undefined)	2%	>57
CNC(=O)CSc1nc2c(c(=O)n(C)c(=O)n2C)n1Cc1ccc(C)cc1	0%	>57
O=C(NCc1ccco1)C1CCN(C(=O)c2cc3sccc3n2Cc2ccc(Cl)cc2)CC1	?	>57
CCOC(=O)Cc1nnc(NC(=O)c2cccc(OCC)c2)s1	?	>57
COc1ccc(NC(=O)CSc2nnc(-c3ccccc3)n2Cc2ccco2)c(OC)c1	10%	>57
COC(=O)c1ccc(COC(=O)c2ccc(N(C)C)cc2)cc1	-23%	>57
Cc1noc(C)c1S(=O)(=O)N1CCC(C(=O)N2CCN(C3CCCC3)CC2)CC1	7%	>57
CCCn1c(=NC(C)=O)c(C#N)cc2c(=O)n3cccc(C)c3nc21	?	>57
CS(=O)(=O)N1CCc2cc(S(=O)(=O)Nc3ccc4oc5c(c4c3)CCCC5)ccc21	?	>57
COc1cccc(NC(=O)CN2CCN(c3ccccc3F)CC2)c1	-15%	>57

Among those listed so far, seven have a furan ring, fused or not:
SMILES	LT uptake inh	SmPrx2 inh
COc1ccccc1N(C(=O)c1ccco1)C(C(=O)NC1CCCC1)c1cccnc1 (centres undefined)	5%	>57
Cc1ccc(C)c2[nH]c(=O)c(CN(Cc3ccco3)C(=O)Nc3ccccc3)cc12	?	>57
CC(=O)c1cc(C)ccc1OC(=O)c1ccco1	-6%	>57
O=C(Nc1ccc(F)cc1)N(Cc1ccco1)Cc1cc2cc3c(cc2[nH]c1=O)OCO3	?	>57
O=C(NCc1ccco1)C1CCN(C(=O)c2cc3sccc3n2Cc2ccc(Cl)cc2)CC1	?	>57
COc1ccc(NC(=O)CSc2nnc(-c3ccccc3)n2Cc2ccco2)c(OC)c1	10%	>57
CS(=O)(=O)N1CCc2cc(S(=O)(=O)Nc3ccc4oc5c(c4c3)CCCC5)ccc21	?	>57

New compounds follow
SMILES	LT uptake inh	SmPrx2 inh
O=C(CSc1nnnn1C1CCCC1)Nc1ccc2c(c1)OCO2	14%	>57
COc1ccc(CC(=O)Nc2c3c(nn2-c2ccccc2C)CS(=O)C3)cc1 (centres undefined)	10%	>57
CCCC(C)C1C(C#N)=C(N)Oc2c1c(=O)oc1ccccc21 (centres undefined)	?	>57
CC(=O)C1=C(C)NC(SCC(N)=O)=C(C#N)C1c1cccnc1 (centres undefined)	4%	.
CN(CC(=O)NCCN1CCCCCC1)S(=O)(=O)c1cccc2nsnc12	-5%	>57
COc1cccc(C(=O)Nc2ccc3nc(N4CCOCC4)cc(C)c3c2)c1	?	>57
COCCCN1C(=O)C(=O)/C(=C(/O)c2ccc(OC)cc2C)C1c1cccnc1 (centres undefined)	.	>57
Cc1oc(/N=C/c2ccc(Cl)cc2)c(C#N)c1C	-18%	.
N[C@@H](Cc1cccc([N+](=O)[O-])c1)C(=O)O	-3%[8 µM]	>57
Cc1cc(Br)ccc1SCC(=O)OCC(=O)N1CCN(C(=O)c2ccco2)CC1	3%	>57
Cc1c(N=CN2CCOCC2)c(=O)n(C)c(=O)n1C	-3%	>57
CCn1c(SCC(=O)O)nnc1-c1cc2c(C)nn(-c3ccccc3)c2s1	-4%	>57
COCc1[nH]nc2c1C1(CCC3(CC1)OCCO3)C(C#N)=C(N)O2	-4%	>57
O=C(Nc1ccc(F)cc1)NC1(C(=O)NCc2ccco2)CCCCC1	-4%	>57
Cc1nn(Cc2ccccc2Cl)c2sc(C(=O)NCCCn3ccnc3)cc12	0%	>57
CCOC(=O)CC(=O)Nc1cc(Cl)ccc1O	0%	>57
CCCC(C)NS(=O)(=O)c1ccccc1 (centres undefined)	-8%	>57
COC(=O)c1cc(NC2c3ccccc3C(=O)N2CCN2CCOCC2)cc(C(=O)OC)c1 (centres undefined)	10%	>57
CC(NC(=O)CSc1nc2ccccc2c(=O)[nH]1)c1ccccc1 (centres undefined)	-13%	>57
CCOC(=O)c1oc2nc3c(cc2c1N)COC(C)(C)C3	-6%	>57
COc1cc(OC)cc(-n2nnnc2SCC(=O)N2CCCC2)c1	-7%	>57
Cc1cccc(N2CCN(C(=O)c3cn(C)c(=O)c4c3c3ccccc3n4C)CC2)c1C	-6%	>57
O=S(=O)(c1cccc(-c2nnc(SCc3ccc(Cl)cc3)o2)c1)N1CCCCC1	-6%	>57
CCS(=O)(=O)N1CCN(C(=O)c2cccs2)CC1	5%	>57
COc1cccc(-c2csc(NC(C)=O)n2)c1	11%	>57
COc1ccc2nc(NC(=O)C(NS(=O)(=O)c3cccs3)C(C)C)sc2c1 (centres undefined)	?	>57
CSc1nnc(-c2cc3ccccc3cc2O)n1C	-9%	>57
Nn1c(CSc2nc3ccccc3o2)nnc1CSc1nc2ccccc2o1	-3%	>57
N#CC1=C(N)Oc2n[nH]c(-c3ccc(F)cc3)c2C1c1cccnc1 (centres undefined)	8%	>57
CCN(CC)CCNC(=O)c1c(O)c2c([nH]c1=O)CCCC2	11%	>57
CCC1(C(=O)OC)NC(c2ccco2)C2C(=O)N(c3ccc(C)cc3)C(=O)C21 (centres undefined)	13%	>57
CN(C)S(=O)(=O)N1CCC(C(=O)O)(c2ccccc2)CC1	-11%	>57
CCCCC1CCC(c2nc(-c3ccccn3)no2)CC1 (centres undefined)	?	.
O=C(NCCCN1CCN(C2CCCCC2)CC1)Nc1ccccc1C(F)(F)F	-6%	>57
COc1ccccc1NC(=O)c1oc2ccccc2c1NC(=O)c1ccco1	-5%	>57
NC1=NC2(CCCCC2)n2c(nc3ccccc32)N1	2%	>57
CCC[C@@H]1C[C@@]1(CCC)C(NC(=O)c1ccco1)c1ccc(Cl)cc1 (some centres undefined)	-24%	>11
C=CCSC1=N/C(=C\c2ccsc2)C(=O)S1	-12%	.
COCCn1c(=O)[nH]c2cc(C(=O)NC3CCCCCC3)ccc2c1=O	4%	>57
Cc1cc(C)n(C(=O)Cc2cn3ccsc3n2)n1	-8%	>57
CCOC(=O)CSC1=C(C#N)C(c2ccc(F)cc2)C(C(C)=O)=C(C)N1 (centres undefined)	-8%	>57

Sorted by formula weight (ascending): 6 of the compounds above.
SMILES	LT uptake inh	SmPrx2 inh
CC(=O)N1CCN(C(C)=O)C1c1ccccc1	-4%	>57
O=C(NCCC1=CCCCC1)C1COc2ccccc2O1 (centres undefined)	-5%	>57
COC(=O)c1ccc(COC(=O)c2ccc(N(C)C)cc2)cc1	-23%	>57
COCCn1c(=O)[nH]c2cc(C(=O)NC3CCCCCC3)ccc2c1=O	4%	>57
O=C(Nc1ccc(S(=O)(=O)N2CCCC2)cc1Cl)C1=COCCO1	4%	>57
CCOC(=O)CNC(=O)CSc1nc2cccnc2n1C1CCCCC1	?	>57

Not all compounds are listed; count on the stated rates, not on these rows.
